Assay outcomes deposited in PubChem BioAssay by several laboratories.
VCAM-1 augmentation = boosters of cytokine-driven VCAM-1 levels – imaging, high-content imaging, pooled HUVEC, TNFa stimulus (AID 457); Pooled HUVEC, TNFa-induced VCAM-1 immunofluorescence imaging; hits of this screen are not shown here; calls only; 10,000 tested, 0.2% active;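 active means a top-ranked rise in VCAM-1 staining upheld on image or statistical review; inactive means the rest, including candidates rejected on review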;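 further: compounds tested at 5 µM in the well; cells exposed to compound for 24 hours before fixing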
VCAM-1 down imaging = suppression of endothelial VCAM-1 upregulation – imaging, high-content imaging, pooled HUVEC, TNFa stimulus (AID 456); HUVEC TNFa-induced VCAM-1 surface expression, immunofluorescence imaging; numbers were filed only for top-ranked candidate wells; inhibition, % at 5 µM, or IC50 in µM where a hit was titrated; 10,000 tested, 0.2% active;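 active means top tenth filtered wells with inhibition above zero that passed visual or statistical confirmation; inactive means the rest, including hits rejected on review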;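 further: 0% = stimulated vehicle wells and 100% = unstimulated cells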
FPRL1 binder = human FPRL1 ligand, with FPR counter-screen; P25090; FPRL1-expressing cells, fluorescent ligand binding inhibition, flow cytometry; inhibition, %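 (tested at 6.7 µM)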; 24,000 tested, 0.3% active; AID 441;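 further: 0% = buffer alone and 100% = receptor blocker peptide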
Target sequence (P25090 whole entry, looked up): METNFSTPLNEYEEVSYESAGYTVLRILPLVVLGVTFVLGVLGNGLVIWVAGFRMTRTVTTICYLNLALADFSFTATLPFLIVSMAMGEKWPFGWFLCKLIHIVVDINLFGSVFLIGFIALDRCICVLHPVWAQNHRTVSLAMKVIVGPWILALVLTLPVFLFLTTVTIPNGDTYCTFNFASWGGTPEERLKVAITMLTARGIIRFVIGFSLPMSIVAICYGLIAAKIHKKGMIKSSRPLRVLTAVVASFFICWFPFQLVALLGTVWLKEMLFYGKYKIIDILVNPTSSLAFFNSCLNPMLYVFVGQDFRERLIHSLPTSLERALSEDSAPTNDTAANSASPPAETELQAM
FPR ligand = binds the human formylpeptide receptor FPR | P21462 | FPR-expressing cells, fluorescent ligand binding, flow cytometry | inhibition, %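 (tested at 6.7 µM)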 | 24,000 tested, 0.74% active;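 further: 0% = buffer wells and 100% = receptor blocker peptide wells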
VCAM-1 down = inhibitors of TNFa-induced VCAM-1 surface display, cell-based, plate reader, pooled HUVEC, TNFa stimulus (AID 454); HUVEC TNFa-induced VCAM-1 surface immunofluorescence, plate reader; numbers were filed only for top-ranked candidate wells; 10,000 tested, 0.2% active; inhibition, % at 5 µM;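 active means compound among top-ranked inhibitors of TNF-induced VCAM-1 adhesion protein staining, with the hit upheld by image or statistical review; inactive means the rest, including hits rejected on review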;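 further: 0% = TNFa with vehicle and 100% = cells without TNFa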
An asterisk follows results filed as active; i = inactive.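 How the source made its calls, unless noted: active means mean above 30%; inconclusive means self-fluorescent; inactive means the rest.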 An excerpt (hit frequency here may not be typical).

item | canonical_smiles | VCAM-1 down imaging | VCAM-1 augmentation | FPRL1 binder | VCAM-1 down | FPR ligand
1 | CCCCN(CCCC)CCCOC(=O)c1ccc(N)cc1 | i | i | 2.6 | i | -6.0
2 | COc1cc(C2Oc3cc(C4Oc5cc(O)cc(O)c5C(=O)C4O)ccc3OC2CO)ccc1O (configuration not stated) | i | i | 7.7 | i | 5.4
3 | CC(C)(C)NCC(O)COc1cccc2c1C[C@H](O)[C@H](O)C2 (some centres not stated) | i | i | -2.2 | i | 0.5
4 | CC1(C)O[C@@H]2C[C@H]3[C@@H]4C[C@H](F)C5=CC(=O)C=C[C@]5(C)[C@@]4(F)[C@@H](O)C[C@]3(C)[C@]2(C(=O)CO)O1 | i | i | 11.5 | i | 11.2
5 | CCCC(=O)O[C@]1(C(=O)COC(C)=O)CC[C@H]2[C@@H]3C[C@H](F)C4=CC(=O)C=C[C@]4(C)[C@@]3(F)[C@@H](O)C[C@@]21C | i | i | -1.5 | i | 2.2
6 | CCCCCCCCCCCCCCCC(O)C(N)CO (configuration not stated) | i | i | -1.2 | i | 15.4
7 | CCN(CCCCOC(=O)c1ccc(OC)c(OC)c1)C(C)Cc1ccc(OC)cc1 (configuration not stated) | i | i | 8.8 | i | 3.2
8 | CCCOc1ccc2nc(NC(=O)OC)[nH]c2c1 | i | i | -7.0 | i | -2.8
9 | N=c1nc(N2CCCCC2)cc(N)n1O | i | i | -7.6 | i | 1.0
10 | COc1ccc(C(=O)c2ccccc2)c(O)c1 | i | i | 10.2 | i | 10.9
11 | CCCC(=O)O[C@]1(C(=O)CCl)[C@@H](C)C[C@H]2[C@@H]3CCC4=CC(=O)C=C[C@]4(C)[C@@]3(F)C(=O)C[C@@]21C | i | i | -0.8 | i | -7.5

Fetched by compound from the entries so far:
item | canonical_smiles | VCAM-1 down imaging | VCAM-1 augmentation | FPRL1 binder | VCAM-1 down | FPR ligand
10 | COc1ccc(C(=O)c2ccccc2)c(O)c1 | i | i | 10.2 | i | 10.9
3 | CC(C)(C)NCC(O)COc1cccc2c1C[C@H](O)[C@H](O)C2 (some centres not stated) | i | i | -2.2 | i | 0.5
7 | CCN(CCCCOC(=O)c1ccc(OC)c(OC)c1)C(C)Cc1ccc(OC)cc1 (configuration not stated) | i | i | 8.8 | i | 3.2
9 | N=c1nc(N2CCCCC2)cc(N)n1O | i | i | -7.6 | i | 1.0
5 | CCCC(=O)O[C@]1(C(=O)COC(C)=O)CC[C@H]2[C@@H]3C[C@H](F)C4=CC(=O)C=C[C@]4(C)[C@@]3(F)[C@@H](O)C[C@@]21C | i | i | -1.5 | i | 2.2
